Sa growth 42C: S. aureus growth inhibition at 42 and 30 °C, primary screen, LtaS inhibitor project, RN4220, two temperatures. OD600, 20 h, 42 °C; hits give low values. relative growth, % (concentration not given with the values). 170,000 tested, 0.53% active. AID 720641, 2013;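 active = growth at 42 °C up to 50% and 20 or more points under that at 30 °C, or under 10% at both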;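 note: 300 nL library stock went into each well; scaled to the means of positive and negative controls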
GIV-Gai inh: inhibitors of GIV peptide binding to Galpha-i3, primary screen, biochemical, fluorescence polarization, FITC-GIV GBA peptide, rat Galphai3 | 210,000 tested, 0.42% active | AID 1224905, 2016 | percent of control (FP), % (concentration not given with the values) | Guanine nucleotide-binding protein G(i) subunit alpha-3 (Rattus norvegicus), P08753 | 90 min; hits give low values; scaled: aluminum fluoride 0%, vehicle 100%;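 active = replicate mean at 85% of control or lower, very high polarization wells dropped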;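 note: wells of about 15 µL received 100 nL stock; the first replicate is given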
Target sequence (P08753 whole entry, looked up): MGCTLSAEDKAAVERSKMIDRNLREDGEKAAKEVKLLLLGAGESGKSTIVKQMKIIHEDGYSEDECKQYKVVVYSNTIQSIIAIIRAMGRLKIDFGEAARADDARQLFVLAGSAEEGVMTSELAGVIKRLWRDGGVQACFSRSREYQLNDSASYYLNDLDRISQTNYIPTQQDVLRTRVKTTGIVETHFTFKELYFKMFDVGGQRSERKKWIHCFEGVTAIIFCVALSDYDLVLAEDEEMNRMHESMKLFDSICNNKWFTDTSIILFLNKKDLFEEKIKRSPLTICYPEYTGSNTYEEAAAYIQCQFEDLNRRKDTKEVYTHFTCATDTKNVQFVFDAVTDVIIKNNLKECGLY
HCMV UL50-53 inh: inhibitors of HCMV UL50-UL53 interaction, biochemical, HTRF; HCMV UL50-UL53 nuclear egress complex (human cytomegalovirus); normalized percent inhibition; inhibition, % (concentration not given with the values); 190,000 tested, 0.15% active; AID 1918969, 2023;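 active = both replicates at 50% or more, plus weaker picks with an unusually low signal ratio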;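 note: stock transfer was 100 nL into about 20 µL; 0% = negative control wells and 100% = wells with untagged competitor protein; inactives centre near -12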
Sa growth 42C second temp: further read-out of Sa growth 42C, marked with its call; relative growth, %; measured here: growth at 30 °C;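 optical density after 20 h as mean of two plates; 100% = untreated growth and lower means inhibition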
An asterisk follows results filed as active; . = no result given; & = joins results of further samples. An unsorted share of the library; any-hit rate near 0.79%.

mol,Sa growth 42C,HCMV UL50-53 inh,GIV-Gai inh,Sa growth 42C second temp
COc1ccc(N2CCN(Cc3nc4c(c(=O)[nH]c(=O)n4C)n3Cc3ccc(C)cc3)CC2)cc1,99,4,105,102
O=C(CNC(=O)c1ccc(-n2cnnc2)cc1)Nc1ccc(N2CCCCC2)cc1,124,-32,103,97
CCc1ccc(OCC(=O)Nc2ccc(OC)cc2)cc1,91,.,102,86
COC(=O)C1=C(c2ccccc2)c2ccccc2S(=O)(=O)N1CC(=O)Nc1ccccc1,.,-27,101,.
Cc1ccc(C)n1-c1ccsc1C(=O)O,46*,-20,65*,69*
CCOC(=O)c1cc(S(=O)(=O)N2CCN(c3ccccc3F)CC2)[nH]n1,106,.,103,92
CCc1nc2ccccc2c(C(=O)O)c1C,91,-3,.,89
CCOc1ccc(S(=O)(=O)N2CCC(n3c(C)nc4cccnc43)CC2)cc1,74,.,106,88
CN(C(=O)CSc1nc2c(c(=O)[nH]1)CCC2)c1ccccc1,98,.,105,88
Cc1cc2n(c(=O)c1C(N)=O)CCO2,76,-8,.,92
CC(=O)N1CCc2c(sc3nc(SCc4ccccc4F)n(-c4ccccc4)c(=O)c23)C1,.,-10,126,.
COCC(=O)N1CCN(c2ncnc3c(-c4ccc(Cl)cc4)nsc23)CC1,102,-21,100,80
Cc1cc(/C=C/C(=O)O)c(C)n1-n1cnnc1,.,-21,97,.
CCOc1ccc(CCNC(=O)c2ccc3[nH]c(C)c(C)c3c2)cc1,126,.,109,98
Cc1cc(C)c(S(=O)(=O)Nc2ccc3nc(N4CCN(C)CC4)cc(C(=O)O)c3c2)cc1C,.,-37,100,.
COC(=O)c1ccc(/C=C2\SC(=S)N(NC(=O)c3ccc(Br)cc3)C2=O)cc1,.,-7,103,.
COc1cc2nc(NCc3ccccc3Cl)n3nc(-c4cccnc4)nc3c2cc1OC,93,3,102,99
CC(C)(C)C(=O)/C=C1\NCCN\C1=C/C(=O)C(C)(C)C,93,-17,.,82
O=C(Nc1nc(-c2cccs2)c(C(=O)C(F)(F)F)s1)c1ccc(S(=O)(=O)N2CCCC2)cc1,.,-28,99,.
Cc1ccc(S(=O)(=O)c2nc(-c3ccccc3)oc2S(=O)(=O)c2ccc(C)cc2)cc1,92,-5,100,91
Cc1ccc(OCc2cc(=O)n3oc(C)cc3n2)c(NC(=O)COc2ccc(C(C)(C)C)cc2)c1,.,-4,98,.
CC1CC(C)CN(C(=O)c2ccc3c(c2)NC(=O)CN3)C1 (stereo unspecified),86,-40,108,82
O=C(c1cnc(N2CCCCC2)c2ccccc12)N1CCN(c2ccccc2F)CC1,100,.,105,75
COCCOc1cc(C)nc(N2CCOCC2)n1,94,-16,99,92
O=C(Nc1nnc(S(=O)(=O)N2CCCC2)s1)c1ccc(F)cc1,116,14,110,111
COc1ccc(OC)c2c1CC(C)(C)n1c(-c3ccc(Cl)cc3)nnc1-2,129,.,100,72
CCN1CNC(=S)N(C2CCCCC2)C1,110,.,103,78
CN(C)c1ccc(CNC(=O)CC(c2cccs2)n2cccc2)cc1 (stereo unspecified),100,-26,99,86
CCOC(=O)N1CCN(C(=O)c2cc(S(C)(=O)=O)ccc2Cl)CC1,105,-2,.,102
COc1cccc(-c2ccc(SCc3nc(-c4ccc5c(c4)OCO5)no3)nn2)c1,.,-3,102,.
CCN(C(=O)CSc1nnc(C(C)(C)C)n1N)c1cccc2ccccc12,96,-4,.,93
Brc1ccc(-c2ncc3ccccn23)cc1,117,-55,128,77
COCCn1c(C)cc(C(=O)COc2nc3ccccc3nc2C)c1C,86,-42,.,90
Cc1cccn2c(=O)c(C(=O)N3CCN(c4ccccc4F)CC3)cnc12,109,.,109,100
CC(C)(C)C(=O)/C=C1\C(=O)Nc2ccc(Br)cc21,118,-3,97,58
COc1ccc(-c2[nH]nc3c2C(c2cc(OC)c(OC)cc2OC)C2=C(CC(C)(C)CC2=O)N3)cc1 (stereo unspecified),92,-8,107,95
CC1=C(C(=O)NCCCN(CC(C)C)CC(C)C)C2(CCN(S(C)(=O)=O)CC2)OC1=O,.,-10,117,.
O=C(c1ccccc1)c1cnc2cc3c(cc2c1N1CCCCCC1)OCCO3,101,-19,101,89
Cc1cccc(-c2cc(Nc3ccc(C(=O)NCCC(C)C)cc3)ncn2)c1,.,8,105,.
O=S(=O)(c1ccc(OC(F)(F)F)cc1)N1CCC(c2nc3ccccc3s2)CC1,79,-13,93,90
COc1cccc(C2CC(=O)Nc3c2c(C)nn3-c2nncc(-c3ccc(C)cc3)n2)c1OC (stereo unspecified),.,-76,96,.
Cc1ccccc1-n1nc(CO)c(C(=O)NCCc2ccccc2)n1,98,-40,99,90
CCOC(=O)C(CC)Sc1nnc(NC(=O)c2ccc3c(c2)OCO3)s1 (stereo unspecified),95,-10,100,92
CCOC(=O)N1CCc2c(sc3c2c(=O)n(-c2ccc(Cl)cc2)c(=O)n3CC(C)C)C1,96,-36,99,88
O=C(COc1ccccc1)N1N=C(c2ccc(F)cc2)CC1(O)C(F)(F)F (stereo unspecified),.,7,109,.
CCS(=O)(=O)c1nc2ccccc2n1CC(=O)N(C)c1ccccc1,89,-25,104,89
Cc1cccc(-c2nnn3c2nc(NCc2ccc4c(c2)OCO4)c2ccccc23)c1,103,-4,106,79
CNc1cc(NC)c2ncnc3c2c1C(=O)c1ccccc1-3,119,.,101,86
Cc1ccc(-c2csc3ncnc(N4CCC(C(N)=O)CC4)c23)cc1,.,-13,112,.
Oc1oc(-c2ccccc2)nc1C=Nc1ccc2ccccc2c1,85,.,101,68
CCOC(=O)c1cc(S(=O)(=O)N(CC)c2ccccc2)cn1C,84,.,98,81
N#Cc1c(N)nc2c(c1-c1ccccc1)CCCCC2,95,-4,102,94
O=C(Nc1nc(SCc2ccc(Cl)cc2)n[nH]1)c1cccs1,110,38,109,87
CCCCn1c(=O)[nH]c(=O)c2c1nc(COC(=O)c1ccccc1)n2CCC(C)C,85,-26,.,94
O=C(NC1=NCCS1)c1cc2c(s1)CCCCCC2,140,8,113,110
Cc1ccc2oc(=O)c3cnn(CC(=O)N4CCC(N5CCCCC5)CC4)c3c2c1,.,-21,99,.

The list continues:
mol,Sa growth 42C,HCMV UL50-53 inh,GIV-Gai inh,Sa growth 42C second temp
C[C@]12CCC3c4ccc(O)cc4CCC3C1CC[C@@H]2O (stereo partly specified),94,-17,.,89
Fc1ccccc1N1CCN(c2ncnc3onc(-c4ccc(Cl)cc4)c23)CC1,90,-8,97,90
COC(=O)C1=C(C)N(C)C(=O)NC1c1ccc(O)c(OC)c1 (stereo unspecified),94,2,.,95
CCOC(=O)c1cnc2sccn2c1=O,113,-10,110,84
CCOC(=O)c1nnn2c1nc(Sc1nc3ccccc3o1)c1ccccc12,107,-33,101,82
Cc1nn2c(NCc3cccnc3)cc(C(C)(C)C)nc2c1-c1ccc(F)cc1,.,-22,98,.
COc1cc(C2CC(=O)N3CN(Cc4ccccc4)CSC3=C2C#N)cc(Br)c1O (stereo unspecified),84,-5,110,79
O=C(O)CN1C(=O)/C(=C\c2ccc(O)cc2)SC1=S,.,-124,196,.
Cc1ccc2oc(=O)c3cc(C(=O)Nc4ccc(F)cc4F)sc3c2c1,100,-15,100,74
Brc1c(Br)c(Br)c2n[nH]nc2c1Br,.,12&3&27&-1,95,.
CCOC(=O)CSc1nc2c(-c3ccccc3)c[nH]c2c(=O)[nH]1,.,-8,114,.
Cc1ccc(Cn2nc(C)c(/C=C/C(=O)O)c2Cl)cc1,93,-10,.,94
C/C(=N\OC(=O)c1nn(C)cc1Br)c1ccc(Cl)cc1Cl,103,-8,102,94
CCOC(=O)c1c(C)[nH]c(C(=O)N2CCC(CC(=O)NCc3ccc(C)cc3)CC2)c1C,.,-8,114,.
O=C(c1ccc2noc(-c3ccc(Cl)cc3)c2c1)N1CCN(c2ccc(F)cc2)CC1,.,10,105,.
O=C(Cc1csc2ccccc12)Nc1ccc(F)cc1,101,-12,97,99
CCOC(=O)C1CCCN(C(=O)c2ccc(-n3ccc4ccccc43)s2)C1 (stereo unspecified),136,.,99,56
COc1ccc(CCN2C(=O)c3[nH]nc(-c4ccccc4O)c3C2c2ccccc2)cc1 (stereo unspecified),89,-11,99,65
CN(C)C(=O)Cc1ccc(S(=O)(=O)N2CCCC2)s1,126,1,.,104
CN(C)C(=S)Nc1ccc(C(C)(C)C)cc1,101,-22,106,92
COC(=O)c1cc(=O)c2cc(C(F)(F)F)ccc2[nH]1,105,2,107,107
CCS(=O)(=O)N1CCN(C(=O)c2nsc3ccccc23)CC1,.,-29,104,.
Cc1oc2ncn(CC(C)C)c(=O)c2c1C(=O)Nc1ccc(Cl)cn1,92,.,106,91
Cc1ccc(-c2noc(C3CCN(C(=O)C4CC(=O)N(C5CCCC5)C4)CC3)n2)cc1 (stereo unspecified),.,-8,101,.
CCc1ccc2c(c1)-c1ccccc1S(=O)(=O)N2CC(=O)N1CCC(C)CC1,105,-8,109,89
COc1ccc(C2CC(=O)C3=C(C2)NC(C)=C(C(=O)OC(C)C)C3c2cc3c(cc2Br)OCO3)cc1 (stereo unspecified),.,-6,104,.
Cc1cccc(Nc2cc(C)ncn2)c1,.,-8,107,.
CCCCn1cnc2cc(NCc3ccncc3)ccc21,115,10,98,106
COc1ccc(COC(=O)C2=C(C)NC3=C(C(=O)CC(C)(C)C3)C2c2coc3ccccc3c2=O)cc1 (stereo unspecified),.,-13,106,.
Cc1cccc(CN2C(=O)c3ccccc3Sc3ccc(C(=O)NCc4cccs4)cc32)c1,119,.,100,85
COc1ccccc1NC(=O)c1cnc(SCC(=O)N2CCOCC2)n(C)c1=O,105,.,96,99
O=C(NCCCn1ccnc1)c1nn2c(C(F)(F)F)cc(-c3ccc(Cl)cc3)nc2c1Cl,.,-40,103,.
Nc1cc(OC(=O)c2ccccc2)nn1S(=O)(=O)c1ccc(F)cc1,.,-31,99,.
CCN(C(=O)Cn1cnc2c(cnn2C)c1=O)c1ccccc1,97,-12,.,91
CCS(=O)(=O)NCCCc1ccccc1,111,-10,100,95
O=c1c2ccccc2n(Cc2ccccc2)c(=O)n1-c1cccc(Cl)c1,103,.,100,87
COc1ccccc1C1CC(c2c(-c3ccccc3)c3cc(Cl)ccc3[nH]c2=O)=NN1C(C)=O (stereo unspecified),.,0,99,.
CN(Cc1cc2ccccc2[nH]c1=O)C(=O)c1ccccc1,92,-16,100,85
CCCOc1ccc(C2NC(=O)NC(C)=C2C(=O)OC2CCCCCCC2)cc1OC (stereo unspecified),.,-3,94,.
CCOC(=O)c1sc2nc(C)cc(C)c2c1N(C(C)=O)C(C)=O,114,3,105,89

One compound at a time, as listed above. Order of values: Sa growth 42C, HCMV UL50-53 inh, GIV-Gai inh, Sa growth 42C second temp
Nc1cc(OC(=O)c2ccccc2)nn1S(=O)(=O)c1ccc(F)cc1 in the list: ., -31, 99, .
O=c1c2ccccc2n(Cc2ccccc2)c(=O)n1-c1cccc(Cl)c1 in the list: 103, ., 100, 87
CN(Cc1cc2ccccc2[nH]c1=O)C(=O)c1ccccc1 in the list: 92, -16, 100, 85
CCCOc1ccc(C2NC(=O)NC(C)=C2C(=O)OC2CCCCCCC2)cc1OC (stereo unspecified) in the list: ., -3, 94, .

(listing goes on)
mol,Sa growth 42C,HCMV UL50-53 inh,GIV-Gai inh,Sa growth 42C second temp
O=S(=O)(c1cc(F)ccc1F)N1CC(OCc2cccc(F)c2)C1,.,-7,99,.
COc1cc(/C=N/n2c(=S)[nH]nc(C)c2=O)cc(Br)c1O,100,-8,104,92
COC(=O)c1ccc(CSc2nc(N)cc(N)n2)cc1,97,-10,99,91
O=C(CCc1nc2cccnc2n1Cc1cccs1)Nc1cccc(C(F)(F)F)c1,111,-14,121,69
COC(CNC(=O)c1ccc(Cn2nnc3ccccc3c2=O)cc1)OC,100,.,107,83
CCOc1ccc2c(c1)-c1c(ssc1=S)C(C)(C)N2C(=O)CSc1nncn1C,.,-56,103,.
CC1CCc2c(sc3nc(=S)sc(N)c23)C1 (stereo unspecified),60,-24,109,34
O=C1c2ccccc2NC(c2ccc(Cl)cc2Cl)N1O (stereo unspecified),73,6,101,44
CC1CCN(c2ccc(NC(=O)c3c4c(nc5ccccc35)C(=O)N(C3CCCCC3)C4)cc2)CC1,.,0,97,.
CC(=O)N1CCSc2ccc(S(=O)(=O)NCCc3ccc(Cl)cc3)cc21,.,-19,107,.
CCOC(=O)/C=c1\s/c(=C\c2ccc(C#N)cc2)c(=O)n1CC(=O)N1CCCCC1C (stereo unspecified),108,-6,.,98
CC(C)n1c(CN(C)c2ccccc2)nc2ccccc21,105,10,101,84
